Bioassay records as filed in PubChem.
Mtb hypoxia inh – inhibitors of hypoxia-regulated fluorescent reporter in Mycobacterium tuberculosis | fluorescence inhibition, % (no concentration beside the values) | actives 0.1% (n = 300,000) | M. tuberculosis hypoxia-regulated fluorescent reporter, fluorescence | AID 1159583;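 active = 35 to 45% if threefold the growth effect, above 45% if 1.5-fold the growth effect; inactive = the rest, general growth blockers included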;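 note: wells of about 50 µL received 100 nL stock; 0% = vehicle wells and 100% = reference inhibitor wells; whole bacteria with a GFP reporter of the hypoxia response; strong numbers were not always called active; many hits fall short of the cut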
Sa ugtP lethal – compounds lethal to S. aureus RN4220 ugtP deletion mutant | actives 0.54% (n = 330,000) | OD600 growth, 16 h; some inactives read as strong as hits | growth inhibition, % (no concentration beside the values);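 active = z-score under -3 and OD600 up to 0.15 on both plates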;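 note: plate controls were untreated wells for no effect and antibiotic for full effect; wells of about 80 µL received 100 nL stock; the first replicate is given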
Sa RN4220 lethal – S. aureus RN4220 growth inhibition | inhibition, % (no concentration beside the values) | actives 0.33% (n = 330,000) | OD600, 16 h | AID 1259311;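 active = z-score of -3 or lower and OD600 up to 0.18 on both plates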;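 note: plate controls were untreated cells for no effect and reference antibiotic for full effect; stock transfer was 100 nL into about 80 µL; one replicate is shown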
Bead autofluor – compound fluorescence in toxin protease inhibitor counterscreen; actives 3.1% (n = 360,000); AID 624483; fluorescence intensity (no concentration beside the values); compound autofluorescence counterscreen, microsphere flow cytometry; stronger effect = higher value;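 active = at least 3 SD above the mean of all compounds, about 16000 in these data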;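 note: 100 nL of 1 mM stock went into each well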
PrP UTR inh – inhibition of PrP 5' UTR reporter expression; cell-based PrP 5' UTR mRNA reporter, plate reader; inhibition, % (concentration not given with the values); actives 0.35% (n = 340,000); AID 488862;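 active = every replicate at 50% or more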;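 note: 0 = median of the neutral control wells; tested in H4 reporter cells; numbers are from one replicate; inactives centre near -14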
BJeLR viability – BJeLR cell viability loss | actives 0.17% (n = 300,000) | inhibition, % (concentration not given with the values) | BJeLR (HRASV12) viability, CellTiter-Glo ATP luminescence, 48 h; reference of the scale not given here;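 active = replicate mean above 50%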;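 note: 50 nL library stock added to about 25 µL; numbers are from one replicate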
Mtb hypoxia inh growth – also measured in Mtb hypoxia inh; calls as there; growth inhibition, %; measured here: M. tuberculosis growth (absorbance);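 0% = vehicle and 100% = reference antibiotic; read after six days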
* marks the source's active call; other numbers are inactive results; x = not tested or not shown.

cpd	SMILES	Mtb hypoxia inh	Mtb hypoxia inh growth	Sa ugtP lethal	Sa RN4220 lethal
1	Cn1ncc(Cl)c1C(=O)N/N=C/c1cccc(OC2CSC2)c1	x	x	x	x
2	COc1cc(OC)nc(Oc2cccc(C(F)(F)F)c2)n1	16	4	14	5.1
3	COc1ccccc1N1CCN(C2CC(=O)N(c3ccc(F)cc3)C2=O)CC1 (stereo unspecified)	-6	8	6	7.1
4	CN1CCN(c2ccccc2NC(=O)c2ccc(-c3ccc(Br)cc3)o2)CC1	0	3	-2	-3.2
5	O=C1C(C=Nc2ccccc2)=C(O)c2ccccc21	x	x	-1	2.4
6	CCC1(c2ccccc2)NC(=O)N(CC(=O)Nc2ccc3c(c2)OCO3)C1=O (stereo unspecified)	1	12	-13	-2.7
7	O=C(NCC(=O)N1CCC2(CC1)NCCc1[nH]cnc12)c1ccc2ccccc2c1	-4	11	4	1.1
8	O=C(N/N=C/c1cccnc1)c1ccc(O)cc1	x	x	x	x

cpd	Bead autofluor	PrP UTR inh	BJeLR viability
1	1966	5	0
2	3177	-16	4
3	3809	-10	-10
4	5033	-34	22
5	3984	-83	6
6	10114	-24	2
7	5135	-30	6
8	3649	-8	6

The list continues:
cpd	SMILES	Mtb hypoxia inh	Mtb hypoxia inh growth	Sa ugtP lethal	Sa RN4220 lethal
9	Nc1nc(SCc2ccccc2)n[nH]1	10	13	3	1.1
10	O=C(Cc1ccccc1F)c1ccc(O)cc1O	4	3	-4	3.3
11	Cc1[nH]c(=O)[nH]c(=O)c1S(=O)(=O)N1CCC(C(=O)NC(C)c2ccccc2)CC1 (stereo unspecified)	3	-2	1	2.4
12	CCOC(=O)N1CCc2c(sc3c2c(=O)n(-c2ccc(CC)cc2)c(=O)n3CC(=O)NCC2CCCO2)C1 (stereo unspecified)	-13	-12	3	4.3
13	COCCNC(=O)C(c1ccc(Cl)cc1)N(Cc1ccco1)C(=O)CCC(=O)Nc1ccccn1 (stereo unspecified)	0	-7	4	6.7
14	O=C(c1ccc2nc(Cc3ccccc3F)oc2c1)N1CCCC1	-9	-3	-3	5.8
15	CNc1nc(OC)nc(N(C#N)CN2C(=O)c3ccccc3S2(=O)=O)n1	6	0	7	2.4
16	CN(CC(=O)Nc1ccccc1Cl)C(=O)COC(=O)c1ccccc1[N+](=O)[O-]	7	-4	5	1.7

cpd	Bead autofluor	PrP UTR inh	BJeLR viability
9	3891	-27	3
10	5007	-10	3
11	7949	-13	0
12	4449	6	17
13	4694	-13	-3
14	6677	-56	3
15	3441	-21	6
16	5069	-26	1

Rewritten in transposed form: 4 of the compounds above.
[12] CCOC(=O)N1CCc2c(sc3c2c(=O)n(-c2ccc(CC)cc2)c(=O)n3CC(=O)NCC2CCCO2)C1 (stereo unspecified)
[13] COCCNC(=O)C(c1ccc(Cl)cc1)N(Cc1ccco1)C(=O)CCC(=O)Nc1ccccn1 (stereo unspecified)
[14] O=C(c1ccc2nc(Cc3ccccc3F)oc2c1)N1CCCC1
[15] CNc1nc(OC)nc(N(C#N)CN2C(=O)c3ccccc3S2(=O)=O)n1

assay / compound,12,13,14,15
Mtb hypoxia inh,-13,0,-9,6
Mtb hypoxia inh growth,-12,-7,-3,0
Sa ugtP lethal,3,4,-3,7
Sa RN4220 lethal,4.3,6.7,5.8,2.4
Bead autofluor,4449,4694,6677,3441
PrP UTR inh,6,-13,-56,-21
BJeLR viability,17,-3,3,6

Remaining list, next part
cpd	SMILES	Mtb hypoxia inh	Mtb hypoxia inh growth	Sa ugtP lethal	Sa RN4220 lethal
17	COc1ccc(C(=O)O/N=C2\CCS(=O)(=O)c3sccc32)cc1	x	x	x	x
18	O=C(O)CC/C(=N\NC(=O)c1ccccc1)c1cccs1	x	x	x	x
19	N#Cc1ccccc1S(=O)(=O)N1CCN(CC(O)COc2ccccc2F)CC1 (stereo unspecified)	-1	-10	8	1.7
20	COc1ccc(N2CCN(C(=O)CSc3nnc(CNc4ccccc4)o3)CC2)cc1	8	-1	6	2.3
21	NS(=O)(=O)c1ccc(N/N=C/c2ccccc2C(=O)O)c([N+](=O)[O-])c1	x	x	x	x
22	COc1ccc(-n2cnnc2SCC(=O)N2CCN(S(=O)(=O)c3ccccc3)CC2)cc1	x	x	6	5.6
23	Cc1ccc(S(=O)(=O)N[C@H](C(=O)OCC(=O)NC(=O)NCc2ccco2)C(C)C)cc1	10	7	-2	3.0
24	CC(=O)c1sccc1NC(=O)CC(C)(C)CC(=O)O	13	-5	11	4.7

cpd	Bead autofluor	PrP UTR inh	BJeLR viability
17	4253	-14	7
18	4358	-4	-1
19	3902	-12	-6
20	8188	0	3
21	3365	3	3
22	2047	-3	7
23	3859	-9	x
24	4367	x	-14

Continued.
cpd	SMILES	Mtb hypoxia inh	Mtb hypoxia inh growth	Sa ugtP lethal	Sa RN4220 lethal
25	CCSc1nc(N)c(C#N)c(-c2ccco2)c1C#N	-14	-4	2	19
26	Fc1ccccc1/C=N/Nc1ncnc2nc[nH]c12	x	x	x	x
27	COc1ccccc1NC(=S)NN=Cc1ccc(O)cc1	3	9	8	3.3
28	CC(C)(C)C1CCc2c(C(=O)NN=Cc3cccs3)csc2C1 (stereo unspecified)	-7	0	-7	-13
29	CC(C)(C)C(=O)Nc1nnc(Cc2ccccc2)s1	3	3	-5	-0.4
30	CCNC(=S)N1CCN(c2nc(-c3ccc(F)cc3)cs2)CC1	-3	-3	10	-9.2
31	CC(O)COc1ccc(C(=NO)c2ccccc2)cc1 (stereo unspecified)	4	7	7	7.7
32	CC1CCCN(C(=O)COC(=O)CSc2ccc(C(N)=O)cc2[N+](=O)[O-])C1 (stereo unspecified)	2	3	5	2.6

cpd	Bead autofluor	PrP UTR inh	BJeLR viability
25	2938	-9	-9
26	5832	-19	-1
27	x	x	x
28	x	x	x
29	8590	-11	x
30	x	-29	0
31	x	x	x
32	5710	-12	-1

(next part)
cpd	SMILES	Mtb hypoxia inh	Mtb hypoxia inh growth	Sa ugtP lethal	Sa RN4220 lethal
33	CN1CCN(C2=C(NS(=O)(=O)c3ccccc3)C(=O)c3ccccc3C2=O)CC1	4	3	8	5.4
34	O=C(c1ccc(S(=O)(=O)N2CCCCC2)cc1)N1CCN(Cc2ccc3c(c2)OCO3)CC1	0	-1	-7	-20
35	CCOC(=O)c1c(-c2ccc(OC)cc2)csc1/N=C/N(C)C	x	x	x	x
36	CC(C)N(C(=O)Cn1c(SCC(=O)NCc2ccc3c(c2)OCO3)nc2ccccc21)C(C)C	x	x	-7	-3.4
37	COc1ccc(C(CNC(=O)COc2cc(C)c(Cl)c(C)c2)N2CCCCC2)cc1 (stereo unspecified)	x	x	x	x
38	CCNC(=O)NC(=O)C(C)OC(=O)c1cccn1C (stereo unspecified)	19	15	6	6.5
39	CCC(CC)CN1C(N(C)C)=NC[C@@H]1CC(C)C	8	11	17	17
40	Cc1cccc(N2CCN(C(=O)c3ccccc3SCC(=O)N3CCCC3)CC2)c1C	9	2	-6	-0.4

cpd	Bead autofluor	PrP UTR inh	BJeLR viability
33	5048	-4	-2
34	2272	5	-5
35	2479	-8	-6
36	2945	-21	-6
37	6394	-9	4
38	3472	-28	1
39	3075	9	x
40	x	4	x

(more compounds)
cpd	SMILES	Mtb hypoxia inh	Mtb hypoxia inh growth	Sa ugtP lethal	Sa RN4220 lethal
41	COCCN(C)C(=O)CCc1nnc(Cc2ccc(-c3ccccc3)cc2)o1	5	5	7	2.2
42	COc1ccc(N2CCN(C(=O)CSc3ccc([N+](=O)[O-])cc3)CC2)cc1	-4	15	-4	-0.6
43	CCC(=O)N(Cc1ccc2c(c1)OCO2)Cc1cc2cc(OC)ccc2[nH]c1=O	2	-3	-4	-12
44	CCOC(=O)c1cnc2c(-c3ccc(Cl)cc3)c(C)nn2c1N	1	6	-13	2.8
45	Nc1cc(=O)[nH]c(SCC(=O)Nc2ccc(N3CCCCC3)cc2)n1	4	-1	2	2.4
46	Cc1cc(OCC(F)(F)C(F)(F)C(F)(F)C(F)F)nc(N)n1	-1	10	8	13
47	O=C(O)COc1ccc(C=C2SC(=S)N(c3ccccc3)C2=O)cc1	9	17	-4	-0.1
48	Clc1ccc(CN2CCSCC2)cc1Cl	7	6	0	9.0

cpd	Bead autofluor	PrP UTR inh	BJeLR viability
41	3409	-1	4
42	3832	-4	-4
43	2788	-1	5
44	3244	-5	-8
45	3941	-12	x
46	3544	-36	-9
47	3720	-8	x
48	4183	-20	-1

Continuation.
cpd	SMILES	Mtb hypoxia inh	Mtb hypoxia inh growth	Sa ugtP lethal	Sa RN4220 lethal
49	CCC(C)NC(=O)C1CCN(S(=O)(=O)c2ccc(Br)s2)CC1 (stereo unspecified)	5	-2	0	-5.8
50	COc1ccc(C2C(C(=O)O)CC(=O)N2c2ccc(OC)cc2)cc1 (stereo unspecified)	x	x	1	-0.9
51	COc1ccc(-c2noc(N3CCC(C(=O)Nc4cc(OC)ccc4OC)CC3)n2)cc1	8	9	1	-8.9
52	COc1cccc(C(=O)Oc2c(Br)cc(Br)cc2/C=N/NC(=O)c2cc(C)[nH]n2)c1	x	x	x	x
53	Cc1ccnc(NC(=S)NC(=O)c2cncc(Br)c2)c1	-16	-15	4	4.8
54	COc1ccc(C(=O)Nc2cc(C(F)(F)F)ccc2-n2cnc3ccccc32)cc1	x	x	x	x
55	COC(=O)c1cccc(NS(C)(=O)=O)c1C	3	12	2	1.8
56	CCc1nnc(NN=Cc2ccc(OC(C)=O)c(OC)c2)n1N	7	6	9	5.7

cpd	Bead autofluor	PrP UTR inh	BJeLR viability
49	2374	-78	2
50	2705	-30	22
51	6123	-11	-6
52	4891	-59	-4
53	2135	-47	-11
54	2567	-12	-1
55	5175	-26	-2
56	x	x	x

(cont.)
cpd	SMILES	Mtb hypoxia inh	Mtb hypoxia inh growth	Sa ugtP lethal	Sa RN4220 lethal
57	CCOC(=O)c1cc2c(n(-c3ccc(C)cc3)c1=O)CCCC2=O	x	x	1	2.3
58	Cn1cc(C(=O)c2ccc(Cl)cc2Cl)cc1C(=O)N/N=C(\N)COc1cccc(C(F)(F)F)c1	x	x	x	x
59	COc1cc(C(=O)Nc2cccc(-c3nc4ncccc4o3)c2C)cc(OC)c1OC	1	8	0	3.2
60	CCOC(=O)c1cc(-c2nnc(-c3ccc(Cl)cc3)o2)c(C)nc1C	x	x	-3	1.5
61	CCN1CCN(C(=O)CN(C)S(=O)(=O)c2cc(C)ccc2OC)CC1	-1	11	3	2.4
62	CC(=O)Nc1cccc(Oc2ncnc3scc(-c4ccc(C(C)C)cc4)c23)c1	4	1	-8	-2.3
63	Cc1cccc(C)c1OCCCCn1cnc2ccccc2c1=O	5	4	13	3.2
64	O=C1OC[C@H]2CCCC[C@@H](CO)ON12	-1	2	2	3.5

cpd	Bead autofluor	PrP UTR inh	BJeLR viability
57	4465	-5	2
58	2951	-3	1
59	2586	-8	-1
60	6360	-17	-13
61	4641	-17	-3
62	1957	-4	43
63	13300	x	-1
64	4250	-36	x

New compounds follow
cpd	SMILES	Mtb hypoxia inh	Mtb hypoxia inh growth	Sa ugtP lethal	Sa RN4220 lethal
65	COc1ccc(-c2cc(C)no2)cc1S(=O)(=O)N1CCCN(Cc2ccc(F)cc2)C1	1	0	5	-0.4
66	CCOC(=O)C1=C(COC(=O)CCOc2cccc(C)c2)NC(=O)NC1C (stereo unspecified)	x	x	x	x
67	COc1cc(/C=N/NC(N)=S)cc(Br)c1OCc1ccccc1F	x	x	x	x
68	O=C(NCc1ccncc1)Nc1cccc(Cl)c1	x	x	-3	7.9
69	COc1nc(N(C)C)nc(N(C)c2cc(Cl)cc(Cl)c2)n1	8	-1	-7	6.2
70	CCCOc1ccc(CC(=O)NN=Cc2ccc(F)cc2)cc1	0	2	5	0.4

cpd	Bead autofluor	PrP UTR inh	BJeLR viability
65	5217	-18	6
66	6288	2	3
67	2498	-14	2
68	2557	-15	-13
69	x	-19	5
70	x	x	x

Compounds as they come, and some 4.1% of all compounds hit somewhere here.
